# Marburg entry inh: blocks Marburg virus binding to or entry into cells; Potency, µM (highest dose often 37.8 µM), for the others: top-dose activity change, negative = inhibition, actives largely listed as inhibitors; hit rate 1.8% among 300,000; Marburg virus pseudotyped entry inhibition, cell reporter; control for the full effect not named in the record; about a third of the inactives were read at about 46 µM; AID 540276; active = well fitted inhibition curve with a large enough effect; inconclusive = small, poorly fitted or top-dose-only effect, or effect the other way; inactive = flat fitted curve, though single readings scatter; tested in HEK293 cells; about a fifth of its hits are not listed in these tables; further: on the % scale 0 is the no-effect control and ±100 the full control effect; luciferase read-out
# RE007 growth inh: less growth of the S. pombe RE007 Vpr strain | S. pombe RE007 Vpr strain, BacTiter-Glo ATP luminescence, 24 h; control for the full effect not named in the record | hit rate 0.21% among 360,000 | AID 651644 | Potency, µM (doses to about 92.2 µM), for inactives: top-dose activity change, negative = less growth; active = well fitted falling curve with a large enough effect; inconclusive = small, poorly fitted or top-dose-only effect; inactive = no such curve, though single readings can be large or run the other way;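 further: on the % scale 0 is the no-effect control and ±100 the full control effect; nearly all actives have a fitted effect of over 50% in size; the assay follows cell death caused by Vpr and the record does not say whether a fall means rescue or toxicity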
#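 Fission yeast strain RE007, carrying one chromosomally integrated HIV-1 vpr copy, was seeded at OD 0.01 in PMG+AL medium with 23 nL pinned compound. After 24 h at 30 °C and 99% humidity, viability was read by BacTiter-Glo luminescence.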
# Cruzain inh noDet: blocks cruzain activity in detergent-free assay | P25779 | purified cruzain, Z-FR-AMC fluorescence, no detergent | Potency, µM, for the others: max response, negative = inhibition, usual class: inhibitors | hit rate 2.3% among 200,000 | AID 1476; active means well fitted curve in the direction sought with a large enough effect; inconclusive means small, poorly fitted or top-dose-only effect, or another doubt; inactive means no such curve, though single readings can be large; an effect the other way counts as inactive or inconclusive;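 further: plate controls were enzyme without inhibitor for no effect and buffer without enzyme for full effect; nearly all actives have a fitted effect of over 40% in size; top concentration of the series not given in the record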
# Target sequence (P25779 123-467 limits assumed): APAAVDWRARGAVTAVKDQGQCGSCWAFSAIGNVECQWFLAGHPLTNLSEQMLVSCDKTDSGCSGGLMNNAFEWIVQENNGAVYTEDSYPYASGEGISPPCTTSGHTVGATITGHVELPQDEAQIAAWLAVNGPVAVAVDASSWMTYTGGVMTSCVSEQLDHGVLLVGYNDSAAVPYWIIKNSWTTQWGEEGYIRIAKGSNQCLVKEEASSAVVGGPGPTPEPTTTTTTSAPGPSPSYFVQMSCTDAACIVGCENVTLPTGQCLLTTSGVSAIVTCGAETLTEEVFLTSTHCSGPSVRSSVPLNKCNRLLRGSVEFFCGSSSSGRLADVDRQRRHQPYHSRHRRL
#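 Detergent-free condition (0.00005% Triton X-100) in acetate buffer pH 5.5 with DTT. 1.5 nM enzyme and compound were pre-mixed 15 min, then 2 uM Z-FR-AMC substrate added; reaction progress from fluorescence change between first and third reads (60 s).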
# StopGo reporter: FMDV 2A StopGo reporter, luciferase signal; AID 1159524; Potency, µM (top dose mostly 57.9 µM), inactives show at the highest dose signal change, negative = less light; human cells with a luciferase reporter of 2A StopGo recoding; control for the full effect not named in the record; hit rate 1.2% among 410,000; active = well fitted falling curve with a large enough effect; inconclusive = small, poorly fitted or top-dose-only effect; inactive = no such curve, though single readings can be large or run the other way; tested in HEK293T cells; further: on the % scale 0 is the no-effect control and ±100 the full control effect; nearly all actives have a fitted effect of over 45% in size; luciferase light after 4 h
# SARS PLP yeast: SARS-CoV PLP inhibition in yeast; hit rate 0.19% among 330,000; S. cerevisiae expressing SARS-CoV PLpro, growth rescue; control for the full effect not named in the record; Potency, µM (titrated, usually from 32.9 µM), for the others: at the highest dose activity, positive = growth rescue; further: 0% is about no effect; nearly all actives have a fitted effect of over 55% in size; growth read by luminescence after 48 h
# Cruzain inh Det: cruzain (T. cruzi) inhibition with detergent | Potency, µM, for inactives: max response, negative = inhibition, usual class: inhibitors | purified cruzain, Z-FR-AMC fluorescence, 0.01% Triton | P25779 | hit rate 0.43% among 200,000; active means well fitted curve in the direction sought with a large enough effect; inconclusive means small, poorly fitted or top-dose-only effect, or another doubt; inactive means no such curve, though single readings can be large; an effect the other way counts as inactive or inconclusive;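 further: plate controls were neutral wells for no effect and buffer without enzyme for full effect; nearly all actives have a fitted effect of over 40% in size; top concentration of the series not given in the record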
#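 In this qHTS format, compounds are incubated with 1.5 nM cruzain for 15 min at room temperature before 2 uM Z-FR-AMC is added. Release of AMC is followed at 360/450 nm, and progress is taken as the 60 s fluorescence difference.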
# Lassa entry inh: inhibitors of Lassa virus binding or cell entry. AID 540256. hit rate 1.2% among 300,000. Lassa virus pseudotype entry inhibition, cell reporter; control for the full effect not named in the record. Potency, µM (doses to about 37.9 µM), without a hit: at the top dose activity change, negative = inhibition, hits mostly inhibitors; active means well fitted inhibition curve with a large enough effect; inconclusive means small, poorly fitted or top-dose-only effect, or effect the other way; inactive means flat fitted curve, though single readings scatter; tested in HEK293 cells; further: on the % scale 0 is the no-effect control and ±100 the full control effect; nearly all actives have a fitted effect of over 50% in size; luciferase read-out
# NS1 function inh: influenza NS1 inhibition. S. cerevisiae slowed by influenza A NS1, growth recovery by OD600. Potency, µM (series often up to 46.1 µM), for inactives: at the top dose activity, positive = more growth. hit rate 0.4% among 270,000; further: actives are rising curves; nearly all actives have a fitted effect of over 50% in size
#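 Growth recovery, yeast-based: influenza A NS1 expressed in S. cerevisiae causes slow growth, and suppressors are detected by OD600. The parent strain without NS1 is used as positive control.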
# * hit, by the source's call; ? = inconclusive; nt = no result given; & = joins results of further samples; [ ] = remark or other dose. Unless noted, the call rests on the fitted dose curve; in most records, active means well fitted rising curve with a large enough effect; inconclusive means small, poorly fitted or top-dose-only effect; inactive means no such curve, though single readings can be large or run the other way. Potency means the concentration at half of the fitted maximal effect.
SMILES,Marburg entry inh,RE007 growth inh,Cruzain inh noDet,StopGo reporter,SARS PLP yeast,Cruzain inh Det,Lassa entry inh,NS1 function inh
COc1ccc(S(=O)(=O)Nc2ccccc2C(=O)NN2CCOCC2)cc1OC,?,26%,nt,-20%,-3%,nt,17%,nt
N#CCCn1cc(C=O)c(-c2cccs2)n1,-8%[46.1 µM],26%,nt,-13%,1%,nt,-26%,1%
O=C(CCN1C(=O)/C(=C/c2ccccc2Cl)SC1=S)NC1CCCC1,0%,0%,nt,-27%,9%,nt,-4%,16%
O=c1c2cc(Br)ccc2[nH]c(=S)n1Cc1ccccc1,-2%[46.1 µM],-18%,nt,-22%,-2%,nt,?,-1%
COC(=O)c1ccc(CN2CCN(C(C)C)C(CCO)C2)cc1 (stereo not given),nt,-12%,nt,-3%,0%,nt,nt,13%
CN1/C(=C\C=C2C(=O)NC(=S)NC2=O)C(C)(C)c2ccccc21,?,7%,nt,-18%,1%,nt,-22%[46.1 µM],nt
Cc1cccc(NC(=O)C(NS(=O)(=O)c2cccc3nsnc23)c2ccccc2)c1C (stereo not given),?,nt,-21%,11%,nt,-4.1%,-5%[46.1 µM],nt
Cc1nc(-c2ccc(NC(=O)c3ccccc3Br)cc2)cs1,?,-17%,2%,57%,-30%,-2.9%,?,-7%
Cc1ccc(/C(N)=N/OC(=O)c2ccc(Cl)cc2Cl)cc1,7.1µM*,-21%,-5%,-54%,-87%,-4.9%,?,-59%
c1ccc(Cn2c3ccccc3c3nnc(SCCN4CCCCC4)nc32)cc1,-14%[46.1 µM],-9%,nt,-25%,0%,nt,5%,1%
COc1ccc(C(=O)C[n+]2ccc3ccccc3c2C)cc1,7%[46.1 µM],-6%,nt,50%[activator],-2%,nt,13%,-4%
COC(=O)[C@@H](NC(=O)c1ccc2c(c1)S(=O)(=O)c1ccccc1C2=O)C(C)C,-26%[46.1 µM],6%,nt,-34%,4%,nt,?,1%
Cc1oc(/N=C/c2cccc([N+](=O)[O-])c2)c(C#N)c1C,nt,-8%,nt,12%,-8%,nt,nt,-7%
CC1CC(C)CN(CCCNC(=O)C2CCCN(c3nnc(N4CCCC4=O)s3)C2)C1 (stereo not given),?,0%,0%,25%,-2%,-6.8%,?,-8%
O=C(NCCc1csc2nc(-c3ccccc3F)nn12)c1ccco1,nt,nt,-8%,3%,nt,0.6%,9%[46.1 µM],nt
CC(=O)c1cn(N(C)c2ncc(C(F)(F)F)cc2Cl)c(=O)[nH]c1=O,13%[46.1 µM],8%,nt,-2%,0%,nt,5%[46.1 µM],nt
COc1cccc(/C=C2\SC(=S)N(c3cccnc3)C2=O)c1OC,-11%[14.2 µM],9%,nt,-17%,0%,nt,5%,nt
O=C(NCc1cccnc1)c1ccc(COc2ccccc2Br)o1,?,-12%,?,nt,-1%,-9.1%,?,-44%
NC(=O)CSc1nnnn1CC(CC(=O)O)c1ccccc1 (stereo not given),25%&25%,8%,8%,14%,-6%,4.6%,?,?
COc1ccccc1CN(Cc1nc2ccccc2c(=O)[nH]1)S(=O)(=O)c1ccc2ccccc2c1,?,-7%,-7%,nt,8%,-3.5%,?,10%
CN(C)S(=O)(=O)c1cccc(NC(=O)NCCCl)c1,nt,0%,nt,0%,1%,nt,nt,5%
CCCCN(CC)C(=O)CSc1nc2ccccc2c(=O)n1CC1COc2ccccc2O1 (stereo not given),?,1%[3.69 µM],-6%,-21%,3%,-2.7%,-26%,3%
O=C(c1ccc2snnc2c1)N1CCCCC1,0%,4%,-4%,6%,5%,-0.5%,11%,1%
OCCSc1c(F)c(SCCO)c(SCCO)c(F)c1SCCO,-16%,-14%,-9%,-21%,3%,5.8%,2%,3%
O=C(CCC(=O)N1CCc2ccccc2C1)NCCc1ccc(Cl)cc1,nt,10%,nt,-9%,-4%,nt,nt,-7%
COc1ccc(N2CCN(C(=O)c3csc4ccccc34)CC2)cc1,-24%,17%,-9%,44%[activator],-21%,4.9%,-2%,3%
Cc1ccc(NC(=O)COc2cccc3ccc(C)nc23)c(Br)c1,-4%,-5%,6%,0%,11%,-7.6%,-2%,-20%
C=CCOc1ccc(/C=N/NC(=O)C2CCCC2)cc1OCC,nt,2%,nt,-25%,1%,nt,nt,7%
Cc1c(NC(=O)C(C)OC(=O)c2c3c(nc4ccccc24)CCC(C)C3)c(=O)n(-c2ccccc2)n1C (stereo not given),18%[46.1 µM],9%,nt,-25%,nt,nt,9%,nt
Cc1ccc2c(c1)C1CN(C)CCC1N2C(=O)c1ccccc1NS(=O)(=O)c1ccc(F)cc1C (stereo not given),?,-5%,6%,-17%,10%,-0.4%,?,3%
CN(C)Cc1ccccc1C1(O)c2ccccc2CSc2ccccc21 (stereo not given),?,5%,-3%,?,-2%,5.7%,?,-7%
CN1CCCC(OC(=O)c2cccc(Cl)c2)C1 (stereo not given),9%[46.1 µM],1%,nt,-4%,0%,nt,?,6%
CCC(=O)Nc1ccc2c(c1)Cc1cc([N+](=O)[O-])ccc1-2,-6%,-6%,nt,35%[activator],nt,nt,?,nt
Cc1nc(C)c(-c2ccc(SCC(=O)Nc3cccc(C)c3C)nn2)s1,nt,nt,25%,-26%,nt,-5.0%,-23%[46.1 µM],nt
O=C(Nc1ccc(Cn2nnc3ccccc32)cc1)c1ccco1,1%,12%,1%,?,4%,-3.9%,-1%,-2%
O=C(COc1cccnc1[N+](=O)[O-])Nc1ccc2c(c1)CCC2,nt,14%,nt,39%[activator],4%,nt,nt,-1%
CC(C)C(NC(=O)c1ccco1)C(=O)NCC(c1ccco1)N(C)C (stereo not given),?,12%,?,-10%,-5%,?,10%,1%
O=C(O)c1cccc(S(=O)(=O)N2Cc3ccccc3C2)c1,8%&8%,-14%,1%,-23%,0%,-1.1%,-5%,4%
CC(=O)Nc1ccc(-c2nnn(CC(=O)Nc3ccc4c(c3)OCO4)n2)cc1Cl,-4%[46.1 µM],-6%,nt,4%,0%,nt,9%,nt
O=S(=O)(c1ccc2c(c1)OCCO2)N1CCN(c2cccc(Cl)c2)CC1,?,-10%,?,-25%,-8%,-3.1%,?,12%
COc1ccc(C(C)=O)cc1COC(=O)c1cc(=O)c2ccccc2o1,15%[46.1 µM],?,nt,-7%,12%,nt,3%,0%
COc1ccc(C2C(C(=O)c3ccco3)=C(O)C(=O)N2CCCn2ccnc2)c(OC)c1 (stereo not given),?,-8%,nt,-11%,1%,nt,4%,15%
CCCN(C(=O)c1cc2c(s1)-c1ccccc1OC2)c1ccccc1F,8%[46.1 µM],nt,-11%,-15%,nt,-18%,nt,nt
O=C(O)C1CC1c1ccc(Br)cc1 (stereo not given),-15%,-6%,11%,-16%,1%,4.3%,24%,-56%
Cc1cc(C)c(S(=O)(=O)N2CCCCC2)c(C)c1-n1ncnn1,2%,7%,-8%,nt,4%,1.9%,9%,-3%
O=C(CCn1c(=O)c2ccccc2n(Cc2ccc(F)cc2Cl)c1=O)NCc1ccc2c(c1)OCO2,-11%[46.1 µM],nt,-5%,-12%,nt,-3.4%,-3%[46.1 µM],nt
CN(Cc1c(C(=O)N/N=C/c2cccc(F)c2)nnn1-c1nonc1N)c1ccccc1,nt,5%,nt,-1%,9%,nt,nt,3%
O=C(/C=C/c1cccc(Br)c1)N1CCN(c2ccccn2)CC1,3%,0%,nt,-24%,0%,nt,12%,nt
Cn1c(Nc2ccccc2)cc(=O)n(C)c1=O,nt,2%,nt,-11%,2%,nt,nt,3%
O=C(COC(=O)CCSc1ccc(Cl)cc1)NCc1ccccc1,-3%,0%,2%,6%,10%,-12%,1%,-9%
COC(=O)C1=C(C)N(C)C(=O)NC1c1cccc2ccccc12 (stereo not given),nt,2%,nt,-30%,28%,nt,?,1%
CCNc1c(NS(=O)(=O)c2ccc(OC)cc2)c(=O)oc2ccccc12,-29%[46.1 µM],12%,nt,-5%,0%,nt,11%,7%
Cc1nn(Cc2ccccc2)c(Cl)c1C(=O)OCC(=O)NC(=O)NC12CC3CC(CC(C3)C1)C2,?,-1%,?,-17%,-2%,-6.9%,-34%,14%
COc1ccc(N(C(=O)C(C)C)S(=O)(=O)c2cccs2)cc1,?,9%,-2%,-10%,-5%,-1.1%,24%[14.3 µM],12%
O=C(CSc1nnc(Cc2ccccc2)o1)c1ccc2c(c1)OCO2,6%[46.1 µM],-18%,nt,6%,2%,nt,0%,nt
Cc1ccc(-n2c(=O)c3c4c(sc3n3c(=S)[nH]nc23)CCC4)cc1,nt,-8%,nt,-5%,0%,nt,nt,2%
CC(C)c1ccc(-c2noc(SCC(=O)N(C)c3ccc(F)cc3)n2)cc1,nt,nt,1%,3%,nt,4.7%,?,nt
Cc1ccnc(NC(=O)C(C)N2C(=O)c3ccccc3S2(=O)=O)c1 (stereo not given),5%,1%,nt,-12%,-3%,nt,9%,nt
CC(=O)c1cccc(N(C(=O)CNC(=O)c2ccco2)C(C(=O)NC2CCCC2)c2ccco2)c1 (stereo not given),0%[46.1 µM],-13%,nt,25%,6%,nt,?,-8%
COc1ccccc1NC(=O)Cn1c(=O)c(N(C)C)c(N)n(C)c1=O,12%[46.1 µM],20%,nt,-8%,1%,nt,5%,nt

# (list continues)
SMILES,Marburg entry inh,RE007 growth inh,Cruzain inh noDet,StopGo reporter,SARS PLP yeast,Cruzain inh Det,Lassa entry inh,NS1 function inh
O=C(NCCc1ccccc1)c1ccc(Cl)c(S(=O)(=O)N2CCOCC2)c1,-2%[46.1 µM],3%,nt,-5%,-3%,nt,?,12%
Cc1ccc(C(=O)OCC(=O)NC2CCCc3ccccc32)o1 (stereo not given),13%,17%,nt,-13%,-2%,nt,2%,nt
Cc1ccc(N(CCC#N)C(=O)COC(=O)c2cc(C)no2)cc1,9%,49%,nt,-5%,4%,nt,-1%,nt
CCCSC1=C(C#N)C(c2ccccc2OCC)CC(=O)N1 (stereo not given),-25%,3%,1%,4%,1%,-3.5%,-15%,-6%
Cc1ccc(Sc2c(CO)c(-c3ccccc3)nn2C)cc1,?,-2%,nt,?,-11%,nt,?,nt
O=C(CSc1ccc(Cl)cc1)NNC(=O)c1ccco1,nt,8%,nt,-19%,-2%,nt,nt,1%
